Compound activity from PubChem.
Env fusion inh: HIV envelope-mediated fusion inhibition; inhibition, % at 12.3 µM; 360,000 compounds, 1.1% hits; AID 651610; HeLa-JRFL Env/CEM21 cell fusion, luciferase;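 active = mean replicate inhibition score of at least 50 and every replicate individually at or above 50; inconclusive = only one of the two criteria met; inactive = mean below 50 and not all replicates reaching 50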;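 note: 0% = plate neutral controls and 100% = maraviroc near 300 nM; one replicate is shown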
CSC inhib: blocks cancer stem cells | cancer stem cell-like cells viability, luminescence | inhibition, % at 7.5 µM | 300,000 compounds, 1.1% hits | AID 2717;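 active = mean at 75% or more and at least half the replicates too; inconclusive = mean and replicates disagree; tested in HMLE shEcad cells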;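 note: 0% = median of negative and 100% = median of positive control wells; the first replicate is given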
MT1-MMP act inh: MT1-MMP (human) activation inhibition. HT1080 RFP-PRO-GFP cells, GFP/RFP ratio fluorescence, overnight; percent of plate control window, DMSO zero. GFP/RFP ratio change, % at 20 µM. 360,000 compounds, 0.061% hits;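 active = GFP/RFP ratio change of at least 30% with cell ATP level not reduced by more than half and red fluorescence within 50% of control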; note: strong numbers were not always called active
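Assay system: HT1080 RFP-PRO-GFP cells | Dosing: 20 µM single dose, 1% DMSO | Incubation: Cells overnight before dosing, compound overnight, 37 °C, 5% CO2 | Evaluation: GFP/RFP fluorescence ratio | Control set: DMSO-only wells and HT1080 RFP-L50D-GFP cell wells as references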
Rce1 inh: yeast Ras-converting enzyme inhibition; yeast membranes, quenched prenylated peptide cleavage fluorescence; AID 2563; 290,000 compounds, 0.27% hits; calls only;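 active = fall in fluorescence gain of 50% or more versus controls, with final raw signal at or below 3038400; inconclusive = same 50% fall but final raw signal above 3038400; inactive = fall in fluorescence gain under 50%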;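 note: plate controls were neutral control wells for no effect and wells lacking membranes for full effect; tested at 10 µM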
PABP FP inh: blocks human PABP binding to poly(A) RNA. inhibition, % at 35 µM. P11940. fluorescence polarization. 290,000 compounds, 1% hits. AID 2014;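 active = 50% or more with normal probe brightness, or confirmed in later tests; inconclusive = above 50% with abnormal brightness, or retests that disagree; inactive = below 50% or failed in later tests; about a fifth of its hits are not listed in these tables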;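 note: calls also rest on retests at 20 µM and on dose response follow-up; controls were probe without protein and protein plus probe with vehicle; some compounds called inactive have numbers as strong as hits; many hits fall short of the cut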
Target sequence (P11940 whole entry, looked up): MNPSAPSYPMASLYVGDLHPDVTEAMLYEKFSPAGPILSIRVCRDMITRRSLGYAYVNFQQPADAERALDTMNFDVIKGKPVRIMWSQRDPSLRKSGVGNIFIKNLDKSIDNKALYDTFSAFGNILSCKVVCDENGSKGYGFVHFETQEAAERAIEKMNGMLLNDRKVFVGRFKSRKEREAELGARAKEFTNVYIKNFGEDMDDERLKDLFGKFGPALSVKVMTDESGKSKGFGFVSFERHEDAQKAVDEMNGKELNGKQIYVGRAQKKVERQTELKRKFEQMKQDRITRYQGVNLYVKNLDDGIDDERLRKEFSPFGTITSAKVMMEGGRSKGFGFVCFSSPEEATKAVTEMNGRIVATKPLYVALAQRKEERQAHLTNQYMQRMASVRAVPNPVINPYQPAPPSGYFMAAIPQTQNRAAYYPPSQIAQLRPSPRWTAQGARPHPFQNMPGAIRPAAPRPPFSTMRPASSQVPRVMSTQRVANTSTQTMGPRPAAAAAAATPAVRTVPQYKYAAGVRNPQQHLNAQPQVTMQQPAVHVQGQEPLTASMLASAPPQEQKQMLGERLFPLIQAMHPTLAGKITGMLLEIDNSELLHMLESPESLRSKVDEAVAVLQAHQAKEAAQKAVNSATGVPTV
eIF4H inh: inhibitors of RNA binding by human eIF4H; eIF4H fluorescence polarization binding assay; inhibition, % at 35 µM; 290,000 compounds, 0.94% hits; Q15056;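 active = 50% or more with normal probe brightness, or confirmed in later tests; inconclusive = above 50% with abnormal brightness, or retests that disagree; inactive = below 50% or failed in later tests; about a fifth of its hits are not listed in these tables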;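 note: calls also rest on retests at 20 µM and on dose response follow-up; 0% = protein and probe with vehicle and 100% = probe without protein; strong numbers were not always called active; many hits fall short of the cut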
Yeast UUG start: yeast start codon fidelity modulation | 350,000 compounds, 0.13% hits | activity score, % at 18.7 µM | S. cerevisiae UUG-firefly luciferase reporter, luminescence/redox ratio;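 active = replicate mean at a twofold rise or more, about +100% in these data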;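 note: firefly luciferase made from a UUG start codon reports start codon fidelity; reporter light over untreated wells divided by growth signal over untreated wells; some hits fall short of that in this replicate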
eIF4H inh retest: recorded beside eIF4H inh, whose call it bears; inhibition, %; compound at 20 µM; confirmation average;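 mean of two retest wells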
PABP FP inh retest: recorded beside PABP FP inh, whose call it bears; inhibition, %; compound at 20 µM; confirmation repeats;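 mean of two retest wells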
MT1-MMP act inh RFP: further read-out of MT1-MMP act inh, marked with its call; RFP signal change, %; measured here: RFP expression control read;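 0 = vehicle wells; hits needed this value within 50% of zero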
Active calls of the source: *; i = inactive; u = inconclusive; x = not tested or not shown.

SMILES	Env fusion inh	CSC inhib	MT1-MMP act inh	MT1-MMP act inh RFP	Rce1 inh	PABP FP inh	eIF4H inh	Yeast UUG start	others
CCn1c(CNC(=O)c2ccccc2F)nnc1SCC(=O)NC1CCCCC1	1	-1	0	1	i	-12	-9	x
CC1Cc2ccccc2N1C(=O)COC(=O)c1ccco1 (configuration not stated)	2	x	-3	8	x	x	x	-7
NNC(=O)c1snnc1-c1ccccc1	-8	-14	3	4	i	-1	-11	x
N#CC(C#N)=C1C=CC=CN1/C(=C\c1ccco1)C(=O)c1ccc(Br)cc1	-287	-90	-44	-10	x	6	41	x
O=C(NCCS(=O)(=O)NC1CCCC1)c1ccc(F)cc1	-10	x	-1	2	i	x	x	-3
C=CCN1C(=O)c2ccc(C(=O)N(C)CC(=O)Nc3ccccc3Cl)cc2C1=O	4	-8	5	0	i	x	x	x
NS(=O)(=O)c1ccc(CCNC(=O)CNCCc2ccc(C(F)(F)F)cc2)cc1	10	-8	0	-10	i	13	8	-12
CCOC(=O)C1CCN(C(=O)c2ccccc2NS(=O)(=O)c2ccc(F)cc2)CC1	4	-1	-1	0	i	-7	-7	x
CCCCC[C@@H]1C=C(C(=O)O)[C@H](c2ccc(Cl)c(Cl)c2)N1S(=O)(=O)c1ccc(C)cc1	-47	98*	9	3	x	x	x	-10
CCCCNC(=O)C(=O)NCc1ccncc1	3	7	-2	-2	i	-19	-16	12
O=C(CC1S/C(=N/N=C/c2cccs2)NC1=O)Nc1ccc(Cl)c(Cl)c1 (configuration not stated)	22	-7	-7	3	i	-5	-2	x
CCn1ccnc1CNC(=O)C1CCC(=O)N(Cc2ccccc2F)C1 (configuration not stated)	1	-6	2	3	i	0	9	-21
COc1cc(-c2nc3ccc4ccccc4c3c3c2CCC3)cc(OC)c1O	-15	8	-7	-11	i	-2	-10	x
COc1ccc(CNC(=O)N2CCN(c3cccc(Cl)c3)CC2)cc1OC	-3	-1	1	-1	i	-2	3	-11
Cc1c(CN2CCC(n3nccc3NC(=O)C3CC3)CC2)[nH]c2ccccc12	9	-1	-2	1	i	21	-3	-17
O=C1CCCN1CCC1CCN(C(=O)Nc2ccccc2)CC1	x	6	2	-2	i	-8	-2	1
CCN(C(=O)N1CCOCC1)c1ccccc1C	-31	-1	3	2	i	-9	-2	-11
COc1cccc(CNC(=O)CCn2c(=O)c3cccn3c3cccnc32)c1	-5	3	0	1	i	12	14	-14
CCCCCCCCCCn1ccc(=N)cc1	78*	36	-14	-42	i	2	0	6
O=C(Cn1cnc2c(cnn2-c2ccccc2)c1=O)Nc1cc(S(=O)(=O)N2CCOCC2)ccc1Cl	-5	-1	1	-5	i	5	-16	x
COc1ccccc1-c1nn(-c2ccccc2)cc1C(=O)N1CCN(C(=O)c2ccco2)CC1	x	-6	6	1	x	x	x	-5
COc1cc(C)c(CN2CCSCC2)cc1C	-14	7	1	3	i	-1	10	7
CCOc1ccc(NC(=S)NNc2ccnc3cc(Cl)ccc23)cc1	3	x	-2	-5	i	17	11	x
COc1cccc(-n2cc(CNCc3c(C(=O)N(C)C)nc4ccc(Cl)cn34)cn2)c1	16	-9	3	3	i	6	9	-2
C[C@@H]1C[C@@H]2OC(=O)[C@]3(C)[C@H]2[C@@H](OC3(C)O)[C@]2(C)C(=O)C=C[C@H]12 (some centres not stated)	-35	9	2	-2	i	12	-4	-8
Cc1ccc(NC(=O)C/C(N)=N/OC(=O)Nc2ccc(C)c(Cl)c2)cc1	-19	x	0	-1	x	x	x	-35
CCN(CC)S(=O)(=O)c1c(OC)cc(C)c(Cl)c1C	-6	-12	2	3	i	-9	7	x
COc1ccc(NC(=O)c2csc3c2CCCC3)cc1	x	-6	3	-3	i	-7	-7	x
O=C(N1CCCCC1)N1CCN(S(=O)(=O)c2ccc(Cl)cc2)CC1	5	6	0	-1	i	-7	-8	12
Cc1ccc(NC2=NC(c3ccc(F)cc3)n3c(nc(C)cc3=O)N2)cc1 (configuration not stated)	-1	-6	-2	0	i	-13	0	-19
O=C(CSc1ncnc2c1cnn2-c1ccccc1)Nc1ccc2c(c1)OCO2	x	-9	-8	-25	i	-5	5	x
C/C(CC(=O)Nc1cccc2c1CCCC2)=N\NC(=O)c1cccc2ccccc12	10	-8	3	6	i	-1	-8	x
O=C1c2ccccc2C(=O)N1Cc1cc(-c2ccccc2Cl)no1	x	x	-2	2	i	4	-8	-12
Cc1ccc(C)c(N2CCN(C(=O)c3csc4ccccc34)CC2)c1	34	32	-3	-5	i	6	6	x
Cc1ccc(S(=O)(=O)CCC(=O)Nc2cccc([N+](=O)[O-])c2)cc1	-1	-5	4	4	i	14	34	x
CCCCn1c(=O)c(CCC(=O)OCC(=O)NCc2ccc(OC)c(OC)c2)nc2ccccc21	7	x	1	4	i	9	-4	x
Cc1ccc(NC(=O)c2ncn(CC(=O)NCc3ccc4c(c3)OCO4)n2)cc1C	-42	x	3	2	x	x	x	-9
O=C(CN1C(=O)NC2(CCCCC2)C1=O)Nc1ccccc1N1CCCC1	-28	6	8	3	x	x	x	-14
O=C(NC1CCCC1)C1CCN(c2nccs2)CC1	x	6	1	5	i	2	42	1
COc1ccc(Cl)cc1C(=O)NCC(=O)OCc1ccccc1	-10	5	0	-1	i	x	x	-2
Cc1ccc(Cn2c(O)c(N=O)c3ccccc32)cc1	14	35	-11	-6	i	3	-5	x
Cc1ccc(N2CC(C(=O)OCC(=O)Nc3ccc(Cl)cc3)CC2=O)cc1 (configuration not stated)	-4	x	0	1	x	x	x	-15
CC(=O)COc1ccc2oc(=O)cc(-c3cc4ccccc4o3)c2c1	-28	-3	-6	-4	i	-4	7	0
Cc1cc(NC(=O)CN2CCCCC2)no1	12	-16	7	3	i	0	38	x
COc1cc(C(C#N)N2CCOCC2)ccc1O (configuration not stated)	-84	-15	-2	2	x	2	4	-13

Part of the list above in order of number of heavy atoms, rising.
SMILES	Env fusion inh	CSC inhib	MT1-MMP act inh	MT1-MMP act inh RFP	Rce1 inh	PABP FP inh	eIF4H inh	Yeast UUG start	others
CC(=O)COc1ccc2oc(=O)cc(-c3cc4ccccc4o3)c2c1	-28	-3	-6	-4	i	-4	7	0
O=C(CN1C(=O)NC2(CCCCC2)C1=O)Nc1ccccc1N1CCCC1	-28	6	8	3	x	x	x	-14
Cc1ccc(NC(=O)c2ncn(CC(=O)NCc3ccc4c(c3)OCO4)n2)cc1C	-42	x	3	2	x	x	x	-9
CCCCn1c(=O)c(CCC(=O)OCC(=O)NCc2ccc(OC)c(OC)c2)nc2ccccc21	7	x	1	4	i	9	-4	x

At a glance, part of the list above.
SMILES	Env fusion inh	CSC inhib	MT1-MMP act inh	MT1-MMP act inh RFP	Rce1 inh	PABP FP inh	eIF4H inh	Yeast UUG start	others
CCn1c(CNC(=O)c2ccccc2F)nnc1SCC(=O)NC1CCCCC1	1	-1	0	1	i	-12	-9	x
CC1Cc2ccccc2N1C(=O)COC(=O)c1ccco1 (configuration not stated)	2	x	-3	8	x	x	x	-7

4 entries drawn at random from the list so far, as already listed:
SMILES	Env fusion inh	CSC inhib	MT1-MMP act inh	MT1-MMP act inh RFP	Rce1 inh	PABP FP inh	eIF4H inh	Yeast UUG start	others
COc1cc(C(C#N)N2CCOCC2)ccc1O (configuration not stated)	-84	-15	-2	2	x	2	4	-13
Cc1ccc(S(=O)(=O)CCC(=O)Nc2cccc([N+](=O)[O-])c2)cc1	-1	-5	4	4	i	14	34	x
O=C(NC1CCCC1)C1CCN(c2nccs2)CC1	x	6	1	5	i	2	42	1
C/C(CC(=O)Nc1cccc2c1CCCC2)=N\NC(=O)c1cccc2ccccc12	10	-8	3	6	i	-1	-8	x

Carrying on.
SMILES	Env fusion inh	CSC inhib	MT1-MMP act inh	MT1-MMP act inh RFP	Rce1 inh	PABP FP inh	eIF4H inh	Yeast UUG start	others
CCOC(=O)c1cc(NC(=O)NCc2ccco2)c(C)nc1C	x	x	0	0	i	4	-2	-6
CC1CCN(C(=O)CN(c2ccc(Oc3ccccc3)cc2)S(C)(=O)=O)CC1	u	3	5	-15	i	3	-16	-1
COc1cccc(C2C(C#N)=C(N)N(N(C)C)C3=C2C(=O)CC(C)(C)C3)c1OC (configuration not stated)	-3	-4	2	5	i	-8	-6	-9
CCOC(=O)Cc1csc(NC(=O)/C=C/c2ccc(Cl)cc2)n1	13	19	-13	-29	i	4	-9	-22
Cc1[nH]c2ccccc2c1C(=O)COc1ccccc1F	-17	19	0	0	x	-7	-1	x
Nc1nc(Nc2ccccc2)nc(N2CCOCC2)c1[N+](=O)[O-]	x	4	2	1	i	-15	2	-10
Cc1ccc(S(=O)(=O)N(C)c2ccc3c(ncn3C)c2[N+](=O)[O-])cc1	-9	16	7	-2	i	x	x	-7
CCOc1ccc(Nc2n[nH]c(=S)s2)cc1	-38	6	4	0	i	2	-2	x
COc1ccc(-c2cc(C)nc3nc(N)nn23)cc1	-119	-5	5	8	x	5	-13	-10
COc1ccc(OCc2cc(C(=O)NCc3nc(C)cs3)no2)c(Cl)c1	-39	-4	-1	3	x	-5	-6	-8
O=C(NC1CC2CCC1C2)c1ccc(CN2CCOCC2)cc1 (configuration not stated)	-7	6	-5	-3	i	8	-9	-14
CC1(C)CC(=O)C=C(Nc2cccc(Cl)c2Cl)C1	5	2	-2	0	i	x	x	11
Cc1cccc(C)c1OCc1cc(C(=O)N2CCN(c3ccccc3)CC2C)no1 (configuration not stated)	11	-2	2	-4	i	11	-11	-3
CC1=C(C(=O)OC(C)C)C(c2ccc(Br)s2)NC(=O)N1 (configuration not stated)	x	-11	-8	-4	i	-2	-1	x
NC(=O)COC(=O)c1cc(Cl)cc(Cl)c1N	-7	-3	-2	0	i	-14	1	x
COc1ccccc1-c1nnc(SCC(=O)Nc2c(Cl)cccc2Cl)o1	-27	-9	-5	-1	i	1	5	-11
COc1cccc(C(c2nnnn2CCc2ccccc2)N2CCN(c3ccccc3)CC2)c1OC (configuration not stated)	-17	8	-30	-23	i	0	-8	11
C=C(C)CNC(=S)NNC(=O)c1ccco1	x	5	3	4	i	-16	-7	-9
COc1cc2c(cc1N/C=C(\C#N)c1nc(-c3ccc(F)cc3)cs1)oc1ccccc12	2	2	-15	5	i	1	29	x
Cc1cccc(OCC(=O)Nc2ccc3c(c2)OCO3)c1C	-21	3	-4	-5	x	-1	6	-12
CN(Cc1cccs1)C(=O)CNC(=O)c1ccco1	-3	x	-1	2	i	61	-5	-5	eIF4H inh retest=-13;PABP FP inh retest=0
O=C(NC1CCCCC1)c1ccc(-n2cncn2)c([N+](=O)[O-])c1	-9	-18	3	0	x	x	x	x
CC(=C/c1ccco1)/C=N/N1CCN(c2ccccc2)CC1	-152	31	1	-4	i	-4	-9	-21
CCN(CC)CCNC(=O)C1c2cc(OC)c(OC)cc2C(=O)N2CCc3ccccc3C12 (configuration not stated)	-50	16	7	7	x	3	5	5
CC(Sc1nnc(C2CC2)n1C)C(=O)Nc1ccc2c(c1)CCC2 (configuration not stated)	x	-3	-2	2	x	x	x	-15
COC(=O)c1cc(NS(=O)(=O)c2ccc(NCc3cccnc3)c(N)c2)cc(C(=O)OC)c1	-20	2	2	-4	i	-8	4	-9
COc1ccc2cc3cc(C(=O)Nc4ccccc4N4CCN(C)CC4)oc3nc2c1	-43	14	-20	-20	i	-19	-11	-10

Some of the compounds tested. The share of hits here may be higher or lower than overall.
